Compound activity deposited in PubChem by Southern Research Specialized Biocontainment Screening Center.
Mtb betalactam = beta-lactam sensitization of Mtb H37Rv; M. tuberculosis H37Rv growth with meropenem, percent inhibition; hits of this screen are not shown here; hit rate 0.27% among 330,000; inhibition, % at 25 µM; AID 434955;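 active = about 74% or more and at least 40 points above the plate without the antibiotic, then above 30% in a dose series; inconclusive = first-round hits that could not be retested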;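 also: growth measured after seven days incubation then overnight dye step; 0% = bacteria only wells and 100% = bacteria with antibiotic; twin plates without the antibiotic show which effects depend on it; some results filed as inactive read as strong as hits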
Active calls of the source: *; ? = inconclusive. Only part of the results is shown; count on the stated rates, not on these rows.

SMILES	Mtb betalactam
Cc1ccc(C)c(N(CC(=O)NCc2ccccc2)C(=O)c2csnn2)c1	2
COc1ccc(C(=O)NCCc2c[nH]c3ccccc23)cc1S(=O)(=O)N1CCCCC1C (stereo not given)	3
O=C(COC(=O)/C=C/c1ccc(Br)o1)NC1CCCCC1	64
C[C@H](CO)N1C[C@H](C)[C@@H](CN(C)C(=O)Nc2ccc3c(c2)OCO3)Oc2ccc(NS(=O)(=O)c3cn(C)cn3)cc2C1=O	0
CCOC(=O)/C=C/[C@H]1CCc2cccc(C)c2O1	-3
O=C(C1=CC=CN2CCS(=O)(=O)N=C12)N1CCN(c2cccc(Cl)c2)CC1	-10
COc1cccc(NC(=O)c2ccccc2)c1	-5
Cc1cc(C)c(NC(=O)CCCn2c(=O)oc3ccccc32)c(C)c1	-1
Cn1nc(C(=O)Nc2ccc(Cl)c(S(=O)(=O)N3CCOCC3)c2)c2ccccc2c1=O	-4
COc1cc(OC)c(OC)cc1CNC(=O)c1cc(S(=O)(=O)N2CCOCC2)ccc1F	1
Cc1cccc(C(=O)OCC(=O)NN2C(=O)NC3(CCCCC3)C2=O)c1	5
CC1(NC(=O)Cc2csc(-c3ccc(Cl)cc3)n2)CCS(=O)(=O)C1 (stereo not given)	0
CC(=O)c1ccc(S(=O)(=O)Nc2ccc3c(c2)OCO3)cc1	1
CC1CCC2(CC1)NC(=O)N(NC(=O)c1cc3ccccc3o1)C2=O (stereo not given)	2
O=C(NCC(c1ccco1)N1CCCCC1)c1cccs1 (stereo not given)	-4
CCN(C[C@H]1N[C@@](C)(C(=O)OC)[C@H]2C(=O)N(Cc3ccccc3)C(=O)[C@@H]12)C(=O)Nc1ccc(Cl)cc1	3
CON(C)C(=O)CC(CNC(=O)OC(C)(C)C)c1ccc(Cl)cc1 (stereo not given)	-1
C/C=C/CC#N	4
O=C(COC(=O)c1ccco1)Nc1ccc([N+](=O)[O-])cc1Cl	-1
Cc1ccccc1/C=N/Nc1ncnc2nc[nH]c12	-3
Cc1cc(C(=O)NN=C2CC(=O)CC(C)(C)C2)c(C)o1	0
CC[C@]12c3[nH]c4ccccc4c3CCN1C(=O)C(CC(=O)NCCN1CCOCC1)C[C@@H]2C(=O)N1CCN(C(=O)C2CC2)CC1 (stereo not given in full)	-6
Cc1ccc(NC(=O)CN(C)C(=O)c2ccc(Sc3nncn3C)c([N+](=O)[O-])c2)cc1	-6
COc1ccc(C(=O)Nc2cccc(-c3csc(C)n3)c2)cc1S(=O)(=O)N1CCCC1	0
COc1ccccc1-c1nn(-c2ccccc2)cc1C(=O)NCC(c1ccco1)N1CCCC1 (stereo not given)	-6

14 structures out of the list, ordered by length of the SMILES, rising.
SMILES	Mtb betalactam
COc1cccc(NC(=O)c2ccccc2)c1	-5
O=C(NCC(c1ccco1)N1CCCCC1)c1cccs1 (stereo not given)	-4
CCOC(=O)/C=C/[C@H]1CCc2cccc(C)c2O1	-3
O=C(COC(=O)/C=C/c1ccc(Br)o1)NC1CCCCC1	64
Cc1cc(C(=O)NN=C2CC(=O)CC(C)(C)C2)c(C)o1	0
CC(=O)c1ccc(S(=O)(=O)Nc2ccc3c(c2)OCO3)cc1	1
CC1(NC(=O)Cc2csc(-c3ccc(Cl)cc3)n2)CCS(=O)(=O)C1 (stereo not given)	0
O=C(C1=CC=CN2CCS(=O)(=O)N=C12)N1CCN(c2cccc(Cl)c2)CC1	-10
COc1cc(OC)c(OC)cc1CNC(=O)c1cc(S(=O)(=O)N2CCOCC2)ccc1F	1
COc1ccc(C(=O)Nc2cccc(-c3csc(C)n3)c2)cc1S(=O)(=O)N1CCCC1	0
Cn1nc(C(=O)Nc2ccc(Cl)c(S(=O)(=O)N3CCOCC3)c2)c2ccccc2c1=O	-4
CCN(C[C@H]1N[C@@](C)(C(=O)OC)[C@H]2C(=O)N(Cc3ccccc3)C(=O)[C@@H]12)C(=O)Nc1ccc(Cl)cc1	3
CC[C@]12c3[nH]c4ccccc4c3CCN1C(=O)C(CC(=O)NCCN1CCOCC1)C[C@@H]2C(=O)N1CCN(C(=O)C2CC2)CC1 (stereo not given in full)	-6
C[C@H](CO)N1C[C@H](C)[C@@H](CN(C)C(=O)Nc2ccc3c(c2)OCO3)Oc2ccc(NS(=O)(=O)c3cn(C)cn3)cc2C1=O	0

Additional entries follow:
SMILES	Mtb betalactam
Cc1ccc(N2CC(C(=O)NNC(=O)c3ccc(F)cc3)CC2=O)cc1 (stereo not given)	7
O=C(/C=C/c1ccc(S(=O)(=O)N2CCOCC2)cc1)Nc1cc(F)ccc1F	-1
CC(Cc1cccs1)NC(=O)CCCn1nnnc1CN1CCOCC1 (stereo not given)	?
Cc1cccc(NC(=O)COC(=O)c2cc(C)n(C3CC3)c2C)c1	-2
Cc1ccsc1CN(C)C(=O)C(NC(=O)c1cccc(S(=O)(=O)N2CCOCC2)c1)C(C)C (stereo not given)	-3
CCn1cnnc1SCC(=O)Nc1ccccc1C(=O)NC1CC1	3
C[C@H](CO)N1C[C@H](C)[C@@H](CN(C)C(=O)Nc2ccccc2)Oc2ccc(NC(=O)Nc3ccccc3)cc2C1=O	-12
CNC(C)C(=O)NC(C(=O)N1CCCC1C(=O)Nc1ccc2ncccc2c1)C(C)C (stereo not given)	10
CC(=O)Nc1ccc(NC(=O)COc2ccc(-c3ccc(C#N)cc3)cc2)cc1	7
COc1cc2sc(-c3ccc(S(C)(=O)=O)cc3)c(C(=O)NCCCCO)c2cc1OC	4
O=C(COC(=O)/C=C/c1ccc(Cl)cc1)NC1CCCC1	-1
Cc1noc(C)c1S(=O)(=O)NCc1cccc(Cl)c1	-6
CCCCn1c(SCC(=O)Nc2ccc3c(c2)OCCO3)nnc1C(CC)N(C)C (stereo not given)	-8
Cc1ccc(S(=O)(=O)N2CCOCC2)cc1C(=O)N1CCc2ccccc21	-2
COc1ccc(OC)c(S(=O)(=O)N2CCN(CC(O)COc3ccc(C#N)cc3)CC2)c1 (stereo not given)	0
COc1ccc(NC(=O)CNc2ccccc2N2CCCC2=O)cc1S(=O)(=O)N1CCOCC1	-7
O=C(NCC(=O)N1CCN(S(=O)(=O)c2ccccc2C(F)(F)F)CC1)c1sc2ccccc2c1Cl	-5
Cc1nc2nc(SCc3ccccc3)nn2c(C)c1C	-5
O=C(c1ccc2n[nH]nc2c1)N1CCN(c2ccc(C(F)(F)F)cn2)CC1	6
COc1ccc(NS(=O)(=O)c2cc(NC(=O)c3ccc(S(=O)(=O)N(C)C)cc3)ccc2N2CCOCC2)cc1	-4
COc1cccc(C2(C)NC(=O)N(CC(=O)c3cc(C)n(C4CC4)c3C)C2=O)c1 (stereo not given)	-3
CCN(CC)C(=O)[C@H]1CC(CC(=O)NCCCn2ccnc2)C(=O)N2CCc3c([nH]c4ccccc34)[C@]12C (stereo not given in full)	-2
C=CCc1cc(C)ccc1OCCOCCN1CCN(C)CC1	-8
COc1ccccc1C(=O)NCC(=O)NCCCN1CCOCC1	2
CCCCNC(=O)c1ccc(NC(=O)CC2SC(N3CCCC3)=NC2=O)cc1 (stereo not given)	-8
SMILES	Mtb betalactam
CC(NC(=O)CN1C(=O)NC2(CCc3ccccc32)C1=O)c1ccc2c(c1)OCCO2 (stereo not given)	-1
Cc1ccc(S(=O)(=O)N2CCCCC2)cc1NC(=O)c1ccccc1Cl	-2
Cc1ccc(NC(=O)c2n[nH]c(=O)c3ccccc23)cc1S(=O)(=O)N1CCOCC1	-1
O=C(CN(c1cc(C(F)(F)F)ccc1Cl)S(=O)(=O)c1ccccc1)NCc1cccnc1	?
COCC(C)n1c(SCC(=O)N2CC(=O)Nc3ccccc32)nc2ccccc2c1=O (stereo not given)	6
Cc1ccc2nc3n(c(=O)c2c1)-c1ccccc1C(=O)NC3Cc1ccccc1 (stereo not given)	-4
COCc1nn2c(N)c(-c3ccccc3)cnc2c1-c1ccccc1	-4
Cc1ccc(CNC(=O)c2cc(-c3ccccc3)n(Cc3cc(C)no3)n2)cc1	0
COCCN(CCOC)c1nc(-c2ccc(Cl)cc2)nc2ccccc12	44
Cc1ccccc1O	-3
Cc1c(NC(=O)C(C)OC(=O)c2ccccc2O)c(=O)n(-c2ccccc2)n1C (stereo not given)	-3
Cc1ccccc1C(=O)N1CCC(C(=O)Nc2sccc2C(N)=O)CC1	-7
Cc1cccc(NC(=O)CSc2cccc[n+]2[O-])c1C	3
O=C1C=C(/C=C/c2ccccc2)C[C@@H](c2ccc(F)cc2)C1	12
C=CC(=O)Nc1cccc(Oc2cc(Cl)nc3[nH]ccc23)c1	10
COc1ccc(C)cc1NC(=O)c1cc(-c2ccccc2)nc2c1cnn2C(C)C	45
CC1(C)CC(NS(=O)(=O)c2ccc(F)cc2)CC(C)(C)N1	-7
CC1(C)Cc2c(cnn2-c2ccccc2)C(NC(=O)c2ccc[n+]([O-])c2)C1 (stereo not given)	-4
CCCN(Cc1nnc(-c2cccs2)o1)C(=O)CN1C(=O)NC2(CCCCC2C)C1=O (stereo not given)	-6
Cc1ccc(C(=O)CN(CCCC(N)=O)C(=O)c2ccncc2)cc1	0
COC(=O)c1ccc(CNC(=O)COC(=O)/C=C/c2ccc(OC)c(OC)c2)cc1	0
COc1cccc(C(=O)OCC(=O)NCC2CCCO2)c1 (stereo not given)	3
COc1ccc(NC(=O)N(C)C[C@H]2Oc3c(NC(=O)c4nc5ccccc5s4)cccc3C(=O)N([C@@H](C)CO)C[C@H]2C)cc1	6
CCN(C[C@H]1N[C@@](C)(C(=O)OC)[C@H]2C(=O)N(C)C(=O)[C@@H]12)C(=O)Nc1ccc(C)cc1	-9
O=C(C[C@H]1C/C=C\CC[C@@H](Cc2ccc(F)cc2)C(=O)OC[C@H]2CCCN2C1=O)NCCO	-7
SMILES	Mtb betalactam
Nc1cc(=O)[nH]c(SCC(=O)Nc2cc(S(=O)(=O)N3CCCCCC3)ccc2Cl)n1	-10
COc1ccccc1NS(=O)(=O)c1cccc(NC(=O)c2nn(C)c(=O)c3ccccc23)c1	-7
O=C(Oc1cccc(C(=S)N2CCOCC2)c1)c1cccc(Cl)c1	?
O=C(COC(=O)c1cccc(Cl)c1)Nc1cccc(S(=O)(=O)NC2=NCCC2)c1	0
CCCNC(=O)C(Cc1ccccc1)NC(=O)c1ccccn1 (stereo not given)	0
COc1ccccc1NS(=O)(=O)c1ccc2[nH]c(=S)oc2c1	-9
COc1ccc(CN(C)C(=O)c2ccccc2OCc2c(C)noc2C)cc1OC	-3
CC1CCCN(S(=O)(=O)c2cc(C(=O)NCc3ccco3)ccc2Cl)C1 (stereo not given)	-9
CCN(CC)c1ccc(NC(=O)CSC(=O)c2ccccc2)cc1	10
CCOc1ccc(OCCCC(=O)N(CC)CC(=O)Nc2c(F)cccc2F)cc1	-8
Cc1ccccc1-c1nc(S(=O)(=O)c2ccccc2)c(N2CCCC2)o1	-1
COc1cc(C#N)ccc1OCC(=O)N1CCc2ccccc2C1	6
CCCN(Cc1nnc(-c2ccccc2Cl)o1)C(=O)COc1ccc(Cl)cc1	0
CCSc1ccc2c(c1)N(CCCN1CCN(C)CC1)c1ccccc1S2	100
Clc1cccc(Cl)c1Cl	-3
CCOc1ccc(NC(=O)Cn2nc(C(N)=O)c3ccccc3c2=O)cc1S(=O)(=O)N1CCCC1	-2
CSCCC(NC(=O)COc1ccccc1)C(=O)NCCOc1ccccc1 (stereo not given)	5
Cc1c(C)c2c(OCC(=O)N3CCC(O)CC3)cc3c(c2oc1=O)CCC(C)(C)O3	-6
COc1cc(C=NNC(=O)c2ccccc2-n2cccc2)ccc1O	-6
Cc1cccc2c(N=NC(=O)c3ccc(NS(=O)(=O)c4cccs4)cc3)c(O)[nH]c12	8
Cc1nn(-c2ccc(F)cc2)c(Cl)c1C(=O)OC(C)C(=O)N(C)C1CCCCC1 (stereo not given)	1
COc1ccc(NC(=O)CN2C(=O)NC3(CCCCCC3)C2=O)cc1Cl	-1
CCNC(=O)N(C)C[C@H]1N[C@@](C)(C(=O)OC)[C@H]2C(=O)N(C)C(=O)[C@@H]12	5
CC(C)c1ccc(NC(=O)C2CSC3(C)CCC(=O)N23)cc1 (stereo not given)	63
O=C(CCc1nc2ccccc2c(=O)[nH]1)NNC(=O)COc1cccc(F)c1	-6
SMILES	Mtb betalactam
O=C(C[C@@H]1C/C=C/CC[C@H](Cc2ccc(F)cc2)C(=O)O[C@H](c2ccccc2)CNC1=O)NCCO	-7
O=C(CCc1ccc(S(=O)(=O)N2CCOCC2)cc1)Nc1ccccc1F	-3
O=C(CCNC(=O)c1ccccc1Cl)Nc1nc2ccc(F)cc2s1	48
NC(=O)C[C@H](N)c1cn([C@@H](CC(N)=O)C(=O)N2CCNCC2)nn1	-8
COc1ccc(CNC(=O)COC(=O)c2cc3ccccc3cc2O)cc1OC	4
CCN(CC)C(CNC(=O)CSc1nnnn1-c1ccc(C)c(C)c1)c1ccco1 (stereo not given)	-5
COc1ccc(CCN2CC(C(=O)NCC(c3ccccc3)N(C)C)CC2=O)cc1OC (stereo not given)	-3
CCN(CC(=O)Nc1ccc(OC)cc1)CC(=O)N1CC(=O)Nc2ccccc21	-4
O=C(COC(=O)CNC(=O)c1ccc(Cl)cc1Cl)NC1CC1	2
CC1CCCN(C(=O)COC(=O)COc2ccc(Cl)cc2)C1 (stereo not given)	58
O=C(OCC(=O)N1CCCCCC1)c1ccc[nH]c1=O	2
CCOc1ccc(C(=O)COC(=O)CN2C(=O)NC3(CCCCC3C)C2=O)cc1 (stereo not given)	-4
CN(C)S(=O)(=O)c1ccc(Cl)c(C(=O)OCC(=O)NNC(=O)c2cccs2)c1	1
O=C(Nc1ccon1)c1nc[nH]c1C(=O)N1CCN(c2ccccc2)CC1	0
N#Cc1ccccc1OCC(=O)OCC(=O)NC1CC1	-3
NC(=O)c1cc([N+](=O)[O-])c(Cl)cc1NCc1ccncc1	-20
CN(Cc1ccccc1)C(=O)c1ccc(NC(=O)Cc2cccc(NC(=O)C3CCCN(C(=O)CCc4ccccc4)C3)c2)cc1 (stereo not given)	-4
COCCCN1CN=C(NS(=O)(=O)c2ccc(C)cc2)NC1	1
